Six1-Eya2 inh = inhibitors of human Six1/Eya2 interaction. AlphaScreen GST-Six1/His-Eya2 binding, biochemical; hits give low values; control for the full effect not named in the record. activity change, % (no concentration beside the values). hit rate 0.56% among 360,000; in the data active = activity change below about -65%; inconclusive = about -30% to -65%; inactive = above about -30%; further: on the % scale 0 is the no-effect control and ±100 the full control effect; compound concentration not given in the record
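Homogeneous AlphaScreen proximity assay pairing GST-Six1 with His-tagged Eya2 (added as 5X mix: 250 nM and 500 nM) in 50 mM Tris pH 8.0, 300 mM NaCl, 1 mM TCEP. Glutathione donor and nickel acceptor beads; 1 h, 37 °C, dark.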
D2 potentiator = potentiates the human D2 dopamine receptor allosterically. AID 624464. potentiation, % (no concentration beside the values). hit rate 0.23% among 360,000. P14416. DiscoveRx D2 beta-arrestin cells, luminescence, 90 min; 100% = 57 uM dopamine signal; active = potentiation of 50% or more; inconclusive = 30% to 50%; inactive = 30% or less;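 further: compound concentration not given in the record; tested on top of an EC20 dose of dopamine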
Target sequence (P14416 whole entry, looked up): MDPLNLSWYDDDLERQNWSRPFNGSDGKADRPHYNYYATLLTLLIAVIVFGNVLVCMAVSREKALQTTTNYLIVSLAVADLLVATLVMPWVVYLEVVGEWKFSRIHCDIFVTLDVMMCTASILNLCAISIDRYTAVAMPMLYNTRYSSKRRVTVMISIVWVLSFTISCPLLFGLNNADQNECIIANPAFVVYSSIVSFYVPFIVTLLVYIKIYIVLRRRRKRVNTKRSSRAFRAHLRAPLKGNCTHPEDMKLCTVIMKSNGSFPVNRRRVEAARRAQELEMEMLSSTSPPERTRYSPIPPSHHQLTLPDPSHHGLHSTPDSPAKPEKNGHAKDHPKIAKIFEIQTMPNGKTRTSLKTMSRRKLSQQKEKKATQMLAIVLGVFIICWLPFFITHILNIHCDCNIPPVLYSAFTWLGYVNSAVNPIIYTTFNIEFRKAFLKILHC
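D2 cells co-treated with compound plus 50 nM dopamine (EC20) for 90 min at 37 deg C to detect potentiation. Beta-arrestin recruitment was read as enzyme-fragment luminescence after 1 h at ambient temperature. Full response was set by 57 uM dopamine.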
TRPML1 blocker = blocks the human TRPML1 channel | TRPML1-inducible cells, Ca2+ dye fluorescence, FDSS; hits give low values; inhibition of EC80 agonist-evoked calcium signal | activity change, negative = inhibition, % (concentration not given with the values) | hit rate 0.02% among 390,000 | AID 624415; in the data active means activity change below about -50%; inconclusive means about -30% to -50%; inactive means above about -30%;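 further: stimulus is agonist 54-4 at its EC80 concentration; on the % scale 0 is the no-effect control and ±100 the full control effect; compound concentration not given in the record; the text of the record puts the active cut at -80%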
Target sequence (Q9GZU1 whole entry, looked up): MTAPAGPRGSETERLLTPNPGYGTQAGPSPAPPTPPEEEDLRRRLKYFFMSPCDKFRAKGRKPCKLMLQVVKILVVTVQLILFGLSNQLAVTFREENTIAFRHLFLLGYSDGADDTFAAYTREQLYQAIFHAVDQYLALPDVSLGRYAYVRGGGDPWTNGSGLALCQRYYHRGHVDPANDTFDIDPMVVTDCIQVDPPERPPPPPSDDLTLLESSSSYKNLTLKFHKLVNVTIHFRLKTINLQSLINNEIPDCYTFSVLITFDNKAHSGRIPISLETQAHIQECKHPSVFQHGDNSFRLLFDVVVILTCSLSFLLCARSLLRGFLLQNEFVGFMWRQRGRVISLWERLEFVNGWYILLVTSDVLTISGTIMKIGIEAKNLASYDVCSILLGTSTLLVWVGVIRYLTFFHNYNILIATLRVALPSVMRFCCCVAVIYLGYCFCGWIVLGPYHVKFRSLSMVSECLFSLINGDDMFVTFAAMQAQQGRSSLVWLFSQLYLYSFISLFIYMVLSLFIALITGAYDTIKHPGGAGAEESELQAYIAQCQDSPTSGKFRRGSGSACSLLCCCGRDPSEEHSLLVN
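Tet-induced TRPML1-DL cells loaded with Ca8 no-wash calcium dye were read kinetically on FDSS. Compound addition was followed by EC80 agonist 54-4 (4 uM final); inhibition was read over 110 s.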
D2 ag = agonists of human D2 dopamine receptor (beta-arrestin); activation, % (concentration not given with the values); hit rate 0.084% among 360,000; P14416; DiscoveRx PathHunter D2 beta-arrestin, luminescence, 90 min; 100% = 57 uM dopamine signal; in the data active = activation above about 40%; inconclusive = about 15% to 40%; inactive = below about 15%; further: compound concentration not given in the record; the text of the record calls up to 30% inactive
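DiscoveRx PathHunter D2 beta-arrestin cells (2,100/well) attached overnight, then compound-stimulated 90 min at 37 C in HBSS/10 mM HEPES/0.1% Tween-20 buffer; beta-galactosidase complementation read by luminescence after 1 h at ambient temperature. Dopamine 57 uM final (EC100) as control.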
PINK1 modulator = modulators of PINK1 expression. PINK1 immunofluorescence, high-content cytometry, 24 h. Potency, µM (titrated, usually from 76.6 µM), for the others: at the highest dose activation (PINK1 increase), hits mostly activators. hit rate 0.2% among 410,000. AID 624263; active = well fitted activation curve with a large enough effect; inconclusive = small, poorly fitted or top-dose-only effect; inactive = flat fitted curve, though single readings scatter; cell line not stated here;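 further: potency means the concentration at half of the fitted maximal effect; % of control where 0% means no effect; nearly all actives have a fitted effect of over 65% in size; a mitochondrial uncoupler was the plate control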
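Compound titrations (5 concentrations, 24 h) on a stable cell line; DMSO and CCCP controls. Endpoint: fixed-cell PINK1 immunofluorescence with mitochondrial, cell and nuclear markers, scanned by microplate cytometer.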
TRPML1 ag = activates the human TRPML1 channel. activation, % (concentration not given with the values). TRPML1-expressing cells, Ca2+ dye fluorescence, FDSS; host cell line not named in the record; reference of the full effect not given here. hit rate 0.12% among 410,000. Q9GZU1; in the data active = activation above about 50%; inconclusive = about 30% to 50%; inactive = below about 30%; further: 0% is about no effect; the text of the record puts the active cut at 80%
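Tet-induced TRPML1-DL cells, 1,500 per well, cultured overnight, were loaded with a no-wash Ca2+ dye for 45–90 min. Calcium fluorescence was recorded on the FDSS for 110 s after compound addition, before the EC80 agonist (4 uM 54-4) was added.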
* = called active by the depositor; ? = inconclusive; / = no result given; [ ] = dose if it differs, or a comment.

SMILES	Six1-Eya2 inh	D2 potentiator	TRPML1 blocker	D2 ag	PINK1 modulator	TRPML1 ag
COc1ccc(CN2C(=O)NC3(CCCCC3)C2=O)cc1F	3	-8	-2	-5.1	1.7%	-0.4
C=CCNC(=O)/C(C#N)=C\c1cc(Cl)c(OCC)c(OC)c1	1	-30	-12	-3.7	8.2%	0.0
COC(=O)c1nnn(-c2cc(Cl)cc(Cl)c2)c1C(=O)OC	12	-12	1	-2.8	1.5%	-0.7
CCCSc1ncc(Cl)c(C(=O)Nc2ccc(S(=O)(=O)N3CC(C)OC(C)C3)cc2)n1 (configuration not stated)	-14	-5	-2	-0.6	?	3.3
Cn1c2c(c(=O)n(C)c1=O)CN(CCCN1CCOCC1)CN2	2	-6	-2	-1.2	1.9%	-0.4
CC(C)(C)OC(=O)N[C@@H](C(=O)OC(C)(C)C)c1ccc(C(F)(F)F)cc1	16	-6	6	-5.2	1.9%	1.4
CN(C(=O)c1ccco1)c1nnc(C23CC4CC(CC(C4)C2)C3)s1	0	-10	54	-4.7	4.9%	1.0
Cc1cccnc1C1=NOC(Cc2ccccc2)C(=O)N1C (configuration not stated)	-2	-3	/	8.0	-0.5%	-0.7
COc1cc(OC)c(OC)cc1CNCC1COc2ccccc2O1 (configuration not stated)	1	-67	-10	-5.2	-0.2%	-0.2
COc1ccc(C(=O)N/N=C/C(C)c2ccccc2)cc1OC (configuration not stated)	-1	-19	2	-2.2	-0.3%	-0.2
CC(C)Cc1ccc(CN2CCCC(NC(=O)c3ccnn3C)C2)cc1 (configuration not stated)	-2	-18	9	-1.9	1.6%	0.3
COc1ccc2[nH]c3c(c2c1)CCN1C(=O)C(CC(=O)NCC24CC5CC(CC(C5)C2)C4)C[C@H](C(=O)N2CCOCC2)[C@@]31C (some centres not stated)	-7	-4	18	-3.1	0.9%	-0.7
CCc1c(N=O)c(-c2ccccc2)n(O)[n+]1[O-]	19	-8	7	-1.9	1.6%	0.5
O=C(Nc1ccc(S(=O)(=O)N2CCCC2)cc1)c1cncc(Br)c1	-3	1	-10	-2.2	-0.1%	0.3
Nc1nonc1-n1nnc(C(=O)N/N=C/c2cccc(F)c2)c1CN1CCCCCC1	1	-2	2	-0.9	1.5%	-0.1
Cc1ccc(S(=O)(=O)N2CCCC(C(=O)NCCc3ccc4c(c3)OCO4)C2)cc1 (configuration not stated)	14	-34	3	-0.3	-0.4%	0.4
COc1ccccc1N1CCN(c2ccc([N+](=O)[O-])cn2)CC1	-5	3	-9	-1.3	1.1%	0.4
Cc1c(C(=O)Nc2cccc(N(C)S(C)(=O)=O)c2)cccc1[N+](=O)[O-]	17	-3	-20	3.3	-2.1%	1.2
CC1CCCC(NC(=O)COC(=O)c2ccc(S(=O)(=O)N3CCOCC3)cc2)C1C (configuration not stated)	3	-14	2	-3.7	-0.8%	-0.1
CCOc1ccc(NC(=O)C2CCN(S(=O)(=O)c3cccnc3)CC2)cc1	4	-3	15	1.8	/	-0.2

A second format for some results above.
> O=C(Nc1ccc(S(=O)(=O)N2CCCC2)cc1)c1cncc(Br)c1
  Six1-Eya2 inh = -3
  D2 potentiator = 1
  TRPML1 blocker = -10
  D2 ag = -2.2
  PINK1 modulator = -0.1%
  TRPML1 ag = 0.3

> Nc1nonc1-n1nnc(C(=O)N/N=C/c2cccc(F)c2)c1CN1CCCCCC1
  Six1-Eya2 inh = 1
  D2 potentiator = -2
  TRPML1 blocker = 2
  D2 ag = -0.9
  PINK1 modulator = 1.5%
  TRPML1 ag = -0.1

> Cc1ccc(S(=O)(=O)N2CCCC(C(=O)NCCc3ccc4c(c3)OCO4)C2)cc1 (configuration not stated)
  Six1-Eya2 inh = 14
  D2 potentiator = -34
  TRPML1 blocker = 3
  D2 ag = -0.3
  PINK1 modulator = -0.4%
  TRPML1 ag = 0.4

(listing goes on)
SMILES	Six1-Eya2 inh	D2 potentiator	TRPML1 blocker	D2 ag	PINK1 modulator	TRPML1 ag
O=C(CCNC(=O)c1ccccc1Cl)NCc1ccncc1	4	-3	0	3.9	0.0%	0.4
COc1cc(C(=O)OCC(=O)N2CCCCC2C)cc(NC(=O)c2cccs2)c1OC (configuration not stated)	-2	-5	-1	9.0	3.7%	0.5
CCCCNc1nc2c(S(=O)(=O)c3ccc(Cl)cc3)nnn2c2ccsc12	/	/	17	/	1.6%	0.7
C=C(C)CSc1nnc(-c2cccc(S(=O)(=O)N(C)C)c2)n1-c1cc(OC)ccc1OC	-2	-13	-2	-3.5	0.9%	0.2
CC(=O)OC1CCC2(C)C(=CCC3C2CCC2(C)C3CC3OC4(CCC(C)CN4)C(C)C32)C1 (configuration not stated)	8	-18	/	-2.9	-0.7%	/
NC(c1ccccc1)c1csc(NC(=O)Nc2ccccc2Oc2ccccc2)n1 (configuration not stated)	-11	8	/	14	1.1%	1.6
COCCNC(=O)COc1ncnc2ccc(Br)cc12	-2	-18	6	-4.9	-0.6%	0.1
O=C(CN1CCN(S(=O)(=O)c2ccc(F)cc2)CC1)N1CCOCC1	-4	3	-5	0.6	1.1%	-0.2
Cc1nn(C)c2c1c(-c1ccccc1)cc(=O)n2CC(=O)Nc1ccccc1C(F)(F)F	/	/	3	/	2.1%	1.9
CCOc1ccc(NC(=O)Cn2sc3nc(C)cc(C)c3c2=O)cc1	-28	-6	12	-2.4	3.6%	0.5
C=CCn1c(CCNC(=O)c2cccs2)nnc1SCC(=O)Nc1cccc(Cl)c1C	1	-1	6	-1.2	1.2%[38.3 µM]	-0.1
O=C(c1cc(S(=O)(=O)N2CCOCC2)ccc1F)N(Cc1nnc(-c2ccccc2Cl)o1)C1CC1	-1	-15	-6	1.4	-0.1%	-1.0
CC(NC(=O)COc1cccnc1[N+](=O)[O-])c1ccc(Cl)cc1Cl (configuration not stated)	-1	-3	/	-15	0.3%	/
Cc1ccc(/C=N/NC(=O)c2ccccn2)o1	-22	7	-4	-1.5	0.5%	0.5
COc1ccc(C(=O)C(CN2CCOCC2)c2ccccc2)cc1F (configuration not stated)	-2	-29	0	-0.1	-3.0%	1.8
CN(Cc1ccccn1)C(=O)c1ccc2nc(Cc3cccc(Cl)c3)oc2c1	-4	-22	-17	-5.3	-0.6%	0.9
CCCCCC(=O)N(CN1C(=O)CCC1=O)c1ccccc1	4	2	-6	-2.7	12%[38.3 µM]	-0.7
CC(=O)Nc1ccc(S(=O)(=O)NC2(c3ccccc3)C(=O)N(C)C(=O)N(C)C2=O)cc1	0	-6	-3	0.5	0.7%	-0.3
CCCN1CCC(=NNc2ccc(S(=O)(=O)N3CCOCC3)cc2[N+](=O)[O-])CC1	0	5	-16	-1.8	?	0.2
O=C1CSc2ccc(S(=O)(=O)NCc3ccc(Cl)cc3)cc2N1	1	0	15	8.0	1.8%	-0.8
CC1Cc2ccccc2N1C(=S)Nc1cccc(S(=O)(=O)N(C)C)c1 (configuration not stated)	-6	-5	10	1.5	1.7%	-0.8
CCCCc1cc(=O)oc2c(C)c(OCC(=O)NCc3ccccn3)ccc12	2	2	24	0.9	-0.1%	3.0
CCCCN1C(=O)C(=O)N(CC(=O)NC2CCCc3ccccc32)C1=O (configuration not stated)	-3	-17	10	-1.7	-1.9%	1.2
CCOC(=O)c1ccc(NC(=O)CSc2nc(-c3ccc(F)cc3)cc(C(F)(F)F)c2C#N)cc1	/	/	5	/	0.7%	1.2
CN(CCOc1ccc(-c2ccn(S(=O)(=O)c3c(Cl)cccc3Cl)n2)cc1)c1ccccn1	-9	-8	8	-3.1	1.2%	-0.1
COc1cccc(C(=O)C2CCCN(Cc3cn[nH]c3C3CCCCC3)C2)c1 (configuration not stated)	-9	-7	-4	-1.6	0.3%	-1.0
O=C(CSc1nc2ccsc2c(=O)n1Cc1ccc(C(=O)O)cc1)NCc1ccco1	-7	-8	-5	-1.1	2.8%	-1.1
O=c1c2ccc(Cl)cc2[nH]c(=S)n1Cc1cccnc1	16	-8	24	0.9	8.4%	0.3
COc1ccc(NC(=O)c2coc3ccccc23)cc1OC	-2	-23	-2	-4.0	11%[38.3 µM]	-0.5
OC(COc1ccc2c(c1)CCC2)CN1CCN(c2ccccc2F)CC1 (configuration not stated)	-7	-30	-12	15	-0.5%[38.3 µM]	1.2
COc1cc2c(cc1O)CC[n+]1cc3c(OC)c(OC)ccc3cc1-2	-19	-13	37	-4.3	-0.6%	1.5
COc1ccc(CCNC(=O)C/C(C)=N/NC(=O)c2ccc(N)cc2)cc1OC	4	-23	2	0.6	2.2%	0.1
Nc1nnc(SCC(=O)NCC(=O)Nc2ccc(F)c(F)c2F)s1	3	10	15	-2.4	0.5%	-0.7
Cc1ccc2c(c1)NC(=O)C(CC(=O)N(C)Cc1ccccc1)O2 (configuration not stated)	-3	-2	38	3.1	1.8%	1.1
CCc1ccc(N2CCN(C(=O)N3CCOCC3)CC2)cc1	4	-4	19	2.9	0.8%	-0.4
COCC(=O)OC/C(O)=C(\C#N)c1nc2ccccc2[nH]1	-16	2	-1	-3.3	1.1%	1.0
CC(C)CCNC(=O)c1ccc2nc(Cc3ccccc3)oc2c1	/	/	9	/	-0.4%	1.5
CCOC(=O)C(C)N(c1ccccc1Cl)S(C)(=O)=O (configuration not stated)	-1	-5	37	-1.8	1.2%	-0.1
Cc1ccc(C)c(N2CCN(c3nc4ccccc4c(=O)n3Cc3ccccc3)CC2)c1	9	-6	1	-0.2	0.8%	0.7
COc1ccc(-c2ccc(Nc3ccc(C(=O)N4CCOCC4)cc3)nn2)cc1OC	-3	8	3	-1.5	-1.5%	-0.4

Overlap with the part before: 2 entries, followed by the next part.
SMILES	Six1-Eya2 inh	D2 potentiator	TRPML1 blocker	D2 ag	PINK1 modulator	TRPML1 ag
Cc1ccc(C)c(N2CCN(c3nc4ccccc4c(=O)n3Cc3ccccc3)CC2)c1	9	-6	1	-0.2	0.8%	0.7
COc1ccc(-c2ccc(Nc3ccc(C(=O)N4CCOCC4)cc3)nn2)cc1OC	-3	8	3	-1.5	-1.5%	-0.4
O/C(=C\Sc1nnc(Cc2ccccc2)o1)c1ccc(Br)cc1	4	-6	-4	1.2	-0.6%[38.3 µM]	3.7
O=C(Cn1c(=O)n(Cc2nc(-c3ccccc3)no2)c(=O)c2ccccc21)Nc1cccc(Cl)c1	/	/	-9	/	4.7%	0.4
Cc1ccccc1OCC(=O)Nc1ccc2c(c1)ncn2C	5	-19	9	-3.9	1.3%	-0.8
CCc1ccc(Oc2coc3cc(O)ccc3c2=O)cc1	-3	1	15	2.5	-1.1%	2.2
